Screening results (PubChem)
BJeLR lethal = kills HRASV12-expressing BJeLR cells | inhibition, % (concentration not given with the values) | BJeLR (HRASV12) viability, CellTiter-Glo ATP luminescence, 48 h; reference of the scale not given here | 300,000 tested, 0.17% active;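 active means replicate mean above 50%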;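 further: 50 nL library stock added to about 25 µL; numbers are from one replicate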
ugtP null kill = kills S. aureus RN4220 lacking UgtP; 330,000 tested, 0.54% active; growth inhibition, % (concentration not given with the values); AID 1259309; S. aureus RN4220 ugtP deletion, OD600 growth, 16 h; some inactives read as strong as hits;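 active means z-score under -3 and OD600 up to 0.15 on both plates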;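 further: plate controls were untreated wells for no effect and antibiotic for full effect; wells of about 80 µL received 100 nL stock; the first replicate is given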
Sa RN4220 lethal = kills Staphylococcus aureus RN4220 | S. aureus RN4220 growth, OD600, 16 h | inhibition, % (no concentration beside the values) | 330,000 tested, 0.33% active | AID 1259311;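 active means z-score of -3 or lower and OD600 up to 0.18 on both plates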;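 further: plate controls were untreated cells for no effect and reference antibiotic for full effect; stock transfer was 100 nL into about 80 µL; one replicate is shown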
PrP UTR inh = suppresses PrP 5' UTR mRNA reporter expression; AID 488862; cell-based PrP 5' UTR mRNA reporter, plate reader; 340,000 tested, 0.35% active; inhibition, % (concentration not given with the values);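 active means every replicate at 50% or more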;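 further: 0 = median of the neutral control wells; tested in H4 reporter cells; numbers are from one replicate; inactives centre near -14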
Autofluor counter = flagged as autofluorescent in microsphere protease counterscreen | compound autofluorescence counterscreen, microsphere flow cytometry; active compounds read high | fluorescence intensity (concentration not given with the values) | 360,000 tested, 3.1% active;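 active means at least 3 SD above the mean of all compounds, about 16000 in these data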;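 further: 100 nL of 1 mM stock went into each well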
Mtb hypoxia inh = inhibitors of hypoxia-regulated fluorescent reporter in Mycobacterium tuberculosis; 300,000 tested, 0.1% active; M. tuberculosis hypoxia-regulated fluorescent reporter, fluorescence; fluorescence inhibition, % (concentration not given with the values);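 active means 35 to 45% if threefold the growth effect, above 45% if 1.5-fold the growth effect; inactive means the rest, general growth blockers included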;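 further: wells of about 50 µL received 100 nL stock; 0% = vehicle wells and 100% = reference inhibitor wells; whole bacteria with a GFP reporter of the hypoxia response; strong numbers were not always called active; many hits fall short of the cut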
Mtb hypoxia inh growth = also measured in Mtb hypoxia inh; calls as there; growth inhibition, %; measured here: M. tuberculosis growth (absorbance);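 0% = vehicle and 100% = reference antibiotic; read after six days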
Active calls of the source: *; / = not tested or not shown; & = joins results of further samples.

SMILES	BJeLR lethal	ugtP null kill	Sa RN4220 lethal	PrP UTR inh	Autofluor counter	Mtb hypoxia inh	Mtb hypoxia inh growth
CCOC(=O)Cc1csc(NC(=O)CCc2ccccc2)n1	-1	7	2.1	-11	4311	3	3
CCN(Cc1ccccc1)S(=O)(=O)c1ccc(C(=O)N(CCCN(C)C)c2nc3cc(C)cc(C)c3s2)cc1	14	-17	4.7	-2	5045	/	/
CCC/C(O)=C1\C(=O)CC(c2ccccc2)CC1=NC(C)C(=O)O (configuration not stated)	-9	13	3.3	-18	8234	-1	4
C[C@H]1CN([C@@H](C)CO)C(=O)c2cc(NC(=O)C3CCCCC3)ccc2O[C@H]1CN(C)C(=O)Nc1ccc2c(c1)OCO2	/	-2	-13	-13	2970	4	12
N#C/C(=C(O)\C=C\c1ccccc1)c1nc2ccccc2[nH]1	0	-5	8.7	-30	3428	-12	0
COC(=O)C1=C(C(=O)OC)C2Nc3ccccc3[C@@]23CC(C(=O)OC)N(C(=O)c2ccc(Br)cc2)C3=N1 (some centres not stated)	/	-3	-2.8	/	/	-5	-2
COc1cc([N+](=O)[O-])ccc1N=Nc1c(N)[nH]n(-c2ccccc2)c1=O	6	3	11	-50	4986	7	6
COc1ccccc1CNC(=O)CN1C(=O)NC2(CCCc3sccc32)C1=O (configuration not stated)	/	0	-0.3	-4	5635	-5	-4
CCCS(=O)(=O)N1CCC(C(=O)NCCC(C)C)CC1	7	5	3.3	-13	5234	19	-2
Cc1cc(N(CN2CCCC2=O)C(=O)c2ccccc2)no1	7	7	1.7	-17	23950*	8	3
COC1(C)CC2C(CC1OC(=O)c1cc([N+](=O)[O-])cc([N+](=O)[O-])c1)C2(C)C (configuration not stated)	-1	-22	-2.3	-32&-34	2158	-13	-5
FC(F)(F)c1cnc(Oc2ccccc2-c2nnco2)c(Cl)c1	-4	-9	-15	-9	3351	16	8
Cc1ccccc1-c1nn(-c2ccc(F)cc2F)cc1CNCC(C)O (configuration not stated)	-6	4	1.0	-19	2553	7	-3
O=C(CCC(=O)N1CCN(Cc2ccc(F)cc2)CC1)Nc1nnc(C(F)(F)F)s1	2	-4	-0.5	3	4372	0	1
CC1(C(=O)N2CCC(CO)(Cc3cccc(C(F)(F)F)c3)CC2)CC1	-6	2	1.8	-4	4003	-13	-8
c1ccc(CNCCc2ccc3c(c2)OCO3)nc1	-1	-3	-1.5	-7	9060	-2	5
O=C(NCc1ccccc1)c1cccc(F)c1F	1	6	3.8	-19	4168	/	/
O=c1cc(CSc2ccccn2)c2ccccc2[nH]1	/	-6	31	2	3564	/	/
COc1ccccc1NC(=O)CCNC(=O)Cn1ccc2ccccc2c1=O	-1	-6	7.4	-14	10769	1	6
Cn1c(SCc2cccc(C(F)(F)F)c2)nnc1-c1ccco1	-2	-2	5.3	2	4353	2	7
NCCCP(=O)(O)CCc1ccccc1	-5	2	2.5	-21	10412	10	5
COCCNC(=S)N1CCN(c2nc(-c3cccc(OC)c3)cs2)CC1	2	4	3.2	-5	3611	1	-3
CN1CCN(C(=O)CN(CCc2ccccc2)S(C)(=O)=O)CC1	3	-3	-3.3	10	11141	-5	2
O=C(Nc1ccc(Cl)c(Cl)c1)N(Cc1cccnc1)Cc1ccco1	-5	-15	4.3	-11	5047	2	5
CC(C)CN(C(=O)CSc1nnc2ccccn12)c1c(N)n(CC(C)C)c(=O)[nH]c1=O	-10	-2	6.9	-13	2423	3	-5
COc1ccc(NC(=O)C2CCCN(S(=O)(=O)c3cccc4cccnc34)C2)c(OC)c1 (configuration not stated)	-4	-2	1.6	-30	6296	/	/
CC1CCCN(CCC(=O)c2ccc(Br)cc2)C1 (configuration not stated)	/	28	-4.8	-10	2114	/	/
COc1ccc(Cn2c3ccc(OC)cc3c3nc4ccccc4nc32)cc1	-8	6	-1.5	-21	2116	-2	8
NC(=O)c1nsc(C(=O)N(Cc2ccc(F)cc2)C(C(=O)NCC2CCCO2)c2ccc(O)cc2)c1N (configuration not stated)	-9	8	-0.1	-32	3462	-3	11
O=C(CSc1nnc(NCc2ccccc2)s1)N1CCOCC1	-4	8	3.9	-10	1910	10	5
CCN(C(=O)COC(=O)c1cc(-c2ccccc2)nc2ccc(Br)cc12)C1CCS(=O)(=O)C1 (configuration not stated)	1	2	26	-3	3143	8	0
Cc1ccc(NC(=O)CNC2CCCCC2)cc1Cl	-6	19	3.0	-10	2947	2	4
COc1ccc(-c2cc(C(F)(F)F)nc(-n3ccnc3)n2)cc1	7	20	3.3	8	3590	1	1
COc1ccc(C(c2nnnn2Cc2ccc(F)cc2)N2CCN(c3ccc(OC)cc3)CC2)cc1 (configuration not stated)	12	4	-0.7	-4	2610	/	/
O=C(COC(=O)c1ccc(O)cc1)Nc1ccc(N2CCCCC2)cc1	-9	6	-4.0	-8	4450	/	/
NS(=O)(=O)c1ccc(CCNC(=O)C2COc3ccccc3O2)cc1 (configuration not stated)	-3	6	2.3	-10	4422	13	8
Cc1cccc(NC(=O)Nc2c(C)n(C)n(-c3ccccc3)c2=O)c1C	-7	8	2.9	-25	5366	9	7
CCOc1ccc(N/C=C\C(=O)c2ccc3c(c2)OCO3)cc1	-1	3	5.9	-56	9735	11	3
COc1ccc(NC(=O)c2cccnc2Sc2ccccc2)c(OC)c1	-7	-2	1.6	-5	2325	6	6
CCCCCCCCCCOC(=O)Cn1c(COc2cccc(C)c2)[n+](C)c2ccccc21	3	/	/	-10	4200	/	/
CC(CN=[N+]=[N-])CN1CCC(NC(=O)OCc2ccccc2)CCC1=O (configuration not stated)	/	3	3.7	/	/	-3	7
CC12CCC(CC1=N/N=C1/NC(=O)/C(=C\c3cccc(Br)c3)S1)C2(C)C (configuration not stated)	/	74	36	/	/	-8	3
Cc1ccc(NC(=O)COC(=O)c2sccc2C)cc1S(=O)(=O)N1CCOCC1	3	-4	5.1	-14	2663	15	10
Cc1ccc(NC(=S)NCC2CCN(C(C)c3ccccc3)C2)cc1 (configuration not stated)	2	9	1.6	-4	4890	10	15
CCOC1=NC(C(=O)O)c2ccccc2C(=C(C)Cl)N1 (configuration not stated)	/	0	7.8	/	/	10	-2

As entered above:
`COc1ccc(C(c2nnnn2Cc2ccc(F)cc2)N2CCN(c3ccc(OC)cc3)CC2)cc1` (configuration not stated) @ BJeLR lethal: 12
`O=C(COC(=O)c1ccc(O)cc1)Nc1ccc(N2CCCCC2)cc1` @ ugtP null kill: 6
`CCN(C(=O)COC(=O)c1cc(-c2ccccc2)nc2ccc(Br)cc12)C1CCS(=O)(=O)C1` (configuration not stated) @ Autofluor counter: 3143
`Cc1ccc(NC(=O)CNC2CCCCC2)cc1Cl` @ BJeLR lethal: -6
`COc1ccc(-c2cc(C(F)(F)F)nc(-n3ccnc3)n2)cc1` @ ugtP null kill: 20
`Cc1ccc(NC(=S)NCC2CCN(C(C)c3ccccc3)C2)cc1` (configuration not stated) @ Autofluor counter: 4890

Continuation.
SMILES	BJeLR lethal	ugtP null kill	Sa RN4220 lethal	PrP UTR inh	Autofluor counter	Mtb hypoxia inh	Mtb hypoxia inh growth
CCCn1c(SCC(=O)Nc2nc3ccccc3s2)nc2c1c(=O)n(C)c(=O)n2C	-10	0	-2.1	-60	3717	/	/
COc1ccc2cc(CCNC(=O)C3CC3)c(=O)[nH]c2c1	-6	15	-0.5	-19	2626	/	/
COCCSc1nnc(NC(=O)C2CC(=O)N(CCc3ccc(F)cc3)C2)s1 (configuration not stated)	-3	-1	3.6	-12	3609	9	3
c1cc(N2CCCCC2)nc(N2CCCCC2)n1	/	13	5.4	-19	3842	21	14
CCc1cc(C(=O)OC)c(NC(=O)CCC(=O)O)s1	/	-4	2.3	-19	21823*	3	9
CCOc1ccc(N2CC(C(=O)NN=Cc3sccc3C)CC2=O)cc1 (configuration not stated)	/	-1	5.5	/	/	-2	-2
CC(=NNC(=O)c1ccn(C)n1)c1ccncc1	/	-4	3.1	/	/	9	-3
NC(=O)c1c(NC(=O)c2ccc(S(=O)(=O)N(CCCl)CCCl)cc2)sc2c1CCCCC2	/	-7	9.1	-32	11043	5	-4
COC(=O)c1ccccc1NC(=O)CC(=O)Nc1ccccc1C(=O)OC	-8	4	6.1	-19	3791	14	10
COc1cc(Cl)c(C)cc1NC(=O)CN1C(=O)C2CCCCC2C1=O (configuration not stated)	/	9	6.7	-10	6219	5	6
COc1ccc(NC(=O)Nc2ccc(F)cc2F)c(C)c1	-2	-1	4.1	-10	21747*	6	18
CC(NC(=O)c1ccco1)c1ccc2c(c1)OCCO2 (configuration not stated)	-15	3	4.5	-3	4165	15	17
C[C@H](CO)N1C[C@H](C)[C@@H](CN(C)S(=O)(=O)c2ccc(F)cc2)Oc2c(NC(=O)Nc3ccc(C(F)(F)F)cc3)cccc2C1=O	/	3	-6.3	-19	4321	1	16
O=C(CNC(=O)c1cc(Cl)nc2ccccc12)Nc1ccccc1Br	/	-2	4.9	-44	8008	4	-6
O=c1[nH]cnc2scc(-c3ccc(F)cc3)c12	-10	-17	5.5	-5	2946	-11	12

A second format for 3 compounds above.
| structure | BJeLR lethal | ugtP null kill | Sa RN4220 lethal | PrP UTR inh | Autofluor counter | Mtb hypoxia inh | Mtb hypoxia inh growth |
| --- | --- | --- | --- | --- | --- | --- | --- |
| CCc1cc(C(=O)OC)c(NC(=O)CCC(=O)O)s1 | / | -4 | 2.3 | -19 | 21823* | 3 | 9 |
| CC(=NNC(=O)c1ccn(C)n1)c1ccncc1 | / | -4 | 3.1 | / | / | 9 | -3 |
| COCCSc1nnc(NC(=O)C2CC(=O)N(CCc3ccc(F)cc3)C2)s1 (configuration not stated) | -3 | -1 | 3.6 | -12 | 3609 | 9 | 3 |

Compounds shown so far containing a nitro group on carbon (two):
SMILES	BJeLR lethal	ugtP null kill	Sa RN4220 lethal	PrP UTR inh	Autofluor counter	Mtb hypoxia inh	Mtb hypoxia inh growth
COc1cc([N+](=O)[O-])ccc1N=Nc1c(N)[nH]n(-c2ccccc2)c1=O	6	3	11	-50	4986	7	6
COC1(C)CC2C(CC1OC(=O)c1cc([N+](=O)[O-])cc([N+](=O)[O-])c1)C2(C)C (configuration not stated)	-1	-22	-2.3	-32&-34	2158	-13	-5

The list goes on:
SMILES	BJeLR lethal	ugtP null kill	Sa RN4220 lethal	PrP UTR inh	Autofluor counter	Mtb hypoxia inh	Mtb hypoxia inh growth
CCOC(=O)C1=C(CC)OC(N)=C(C#N)C1c1ccc(F)cc1F (configuration not stated)	-7	-1	0.4	-8	2064	8	-4
COc1ccccc1C(=O)Nc1ccc2c(c1)nc(CN1CCCCC1)n2C	-5	-1	0.6	-14	4386	4	6
O=C(NCCCNC(=O)C(F)(F)C(F)F)C(F)(F)C(F)F	5	1	4.6	-2	3983	13	8
CC(=O)c1cc(OC(=O)c2ccncc2)ccc1OC(=O)c1ccncc1	1	-2	3.0	-16	2775	/	/
O=C1Nc2ccc([N+](=O)[O-])cc2C1=Nc1cccc(CO)c1	/	3	0.5	-16	3592	2	5
CCSc1nnc(CCNS(=O)(=O)c2ccc(C(C)=O)cc2)n1C	-7	11	8.2	-17	2937	-10	-1
Cc1nc(CS(=O)(=O)c2ccccn2)sc1C(=O)NNC(=O)c1c(F)cccc1Cl	8	7	2.2	-8	3700	-6	0
Cc1cccc(C(=O)N/N=C/C(C)Cc2ccc3c(c2)OCO3)c1 (configuration not stated)	-5	/	/	-7	2148	/	/
